Vaccinia stage: blocks a specific stage of Vaccinia orthopoxvirus infection. 89,000 compounds, 0.01% hits. AID 1053133. activity change (mCherry), % (no concentration beside the values). Vaccinia-infected cells, mCherry/Venus stage reporter fluorescence; active compounds read low; some inactives read as strong as hits;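 active means mCherry past -33% and 40 or more points under the early reporter, replicates agreeing; inconclusive means past -33% without that gap or agreement; tested in A549 cells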;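 further: scaled between vehicle wells and reference inhibitor wells; 23 nL library stock went into each well; one replicate is shown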
Vaccinia stage Venus: recorded beside Vaccinia stage, whose call it bears; activity change (Venus), %; measured here: Venus reporter, other viral stage;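 negative = less Venus signal; first of two replicates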
Active calls of the source: *; u = inconclusive; x = no result given; & = joins results of further samples. The list is partial; rates above refer to the full screens.

compound | Vaccinia stage | Vaccinia stage Venus
C[C@H]1CN([C@@H](C)CO)S(=O)(=O)c2ccc(C#CC3CC3)cc2O[C@@H]1CN(C)C(=O)CC1CC1 | -9 | -8
CC(C)NC(=O)Nc1ccc2c(c1)C(=O)N([C@@H](C)CO)C[C@H](C)[C@@H](CN(C)Cc1ccncc1)OCCCC[C@H](C)O2 | 12 | 5
C[C@@H]1CN([C@H](C)CO)C(=O)c2cc(NC(=O)c3ccncc3)ccc2O[C@H]1CN(C)CC1CCCCC1 | 11 | 9
O=C(NC[C@H]1CC[C@@H]2[C@@H](CN2C(=O)CN2CCOCC2)O1)NC1CCCCC1 | 3 | 11
CO[C@@H]1CN(C)C(=O)c2cc(NS(C)(=O)=O)ccc2OC[C@@H](C)N(CC2CCOCC2)C[C@H]1C | 20 | 16
C[C@H](NC(=O)C[C@@H]1C[C@H]2c3cc(N(C)C)ccc3O[C@H]2[C@@H](CO)O1)c1ccccc1 | -2 | 3
O=C(NC[C@H]1N[C@H](CO)[C@@H]1c1ccc(C2=CCCC2)cc1)C1CCC1 | -9 | -5
C[C@H]1CN([C@@H](C)CO)C(=O)CCCn2cc(nn2)CO[C@H]1CN(C)S(=O)(=O)c1ccc(F)cc1 | 9 | 7
CC(C)NC(=O)Nc1ccc2c(c1)C(=O)N([C@H](C)CO)C[C@@H](C)[C@H](CN(C)S(C)(=O)=O)OCCCC[C@H](C)O2 | 20 | 0
O=C(O)[C@@H]1[C@@H](CO)[C@@H]2Cn3c(cccc3=O)[C@H]1N2C(=O)c1ccccc1 | 19 | 10
O=C(C[C@H]1CC[C@@H](NC(=O)c2cccc(F)c2)[C@@H](CO)O1)NCCN1CCCC1 | 0 | 0
C[C@H](CO)N1C[C@H](C)[C@@H](CN(C)Cc2ccc(Cl)c(Cl)c2)Oc2ccc(NC(=O)Nc3cccc4ccccc34)cc2C1=O | -9 | -4
CC(C)CC#Cc1ccc2c(c1)O[C@H](CN(C)S(C)(=O)=O)[C@@H](C)CN([C@H](C)CO)S2(=O)=O | -1 | -15
C[C@@H]1CN([C@H](C)CO)C(=O)Cc2cc(NC(=O)C3CCCCC3)ccc2O[C@H]1CN(C)S(=O)(=O)c1cccs1 | 14 | 10
C[C@@H]1CN([C@H](C)CO)C(=O)c2cc(/C=C/c3ccccc3)cnc2O[C@H]1CN(C)C(=O)CN1CCOCC1 | 14 | 5
C[C@@H]1CN([C@@H](C)CO)S(=O)(=O)c2ccc(C3=CCCC3)cc2O[C@@H]1CN(C)C | u | x
CCC(=O)Nc1ccc2c(c1)C(=O)N(C)C[C@H](OC)[C@H](C)CN(Cc1ccccn1)[C@H](C)CO2 | 6 | 3
O=C(C[C@H]1CC[C@@H](NC(=O)Nc2ccc(F)cc2)[C@H](CO)O1)NCCN1CCCC1 | 17 | 15
C[C@H]1CN([C@@H](C)CO)C(=O)c2cccc(NC(=O)C3CC3)c2O[C@H]1CN(C)C | u | x
O=C(N[C@H]1C=C[C@H](CC(=O)N2CCc3ccccc3C2)O[C@@H]1CO)C1CCOCC1 | 14 | 17
CN1C(=O)c2cc(NC(=O)Cc3cccs3)ccc2OC[C@H]2O[C@@H](CC(=O)NCC3CC3)CC[C@H]21 | 3 | 6
CO[C@H]1CN(C)C(=O)c2ccc(NC(=O)C3CC3)cc2OC[C@H](C)N(C(=O)CN(C)C)C[C@@H]1C | 7 | 14
C[C@H]1CN([C@@H](C)CO)C(=O)c2cc(C#Cc3cccc(F)c3)cnc2O[C@@H]1CN(C)C(=O)C1CCC1 | -12 | -13
C[C@@H]1CN([C@@H](C)CO)C(=O)c2cc(NS(=O)(=O)c3cccs3)ccc2O[C@@H](C)CCCCO[C@@H]1CN(C)CC1CCCCC1 | u | x
COc1ccccc1CNC(=O)C[C@@H]1C=C[C@@H](NC(=O)CN(C)C)[C@@H](CO)O1 | 12 | 9
CCC(=O)N1C[C@@H](C)[C@H](OC)CN(C)C(=O)c2cc(NC(=O)c3ccc(F)cc3)ccc2OC[C@@H]1C | 11 | 5
COCC(=O)N(C)C[C@@H]1Oc2ncc(C#CC3(O)CCCC3)cc2C(=O)N([C@H](C)CO)C[C@@H]1C | 11 | 3
COc1ccc(S(=O)(=O)N2CCCCN3[C@@H](CO)[C@H](c4ccc(-c5cccnc5)cc4)[C@@H]3C2)cc1 | 10 | 4
C[C@H]1CN([C@@H](C)CO)C(=O)c2cc(/C=C/c3ccccc3)cnc2O[C@@H]1CN(C)S(=O)(=O)c1ccc(F)cc1 | u | x
C[C@H](O)C#Cc1cnc2c(c1)C(=O)N([C@@H](C)CO)C[C@H](C)[C@@H](CN(C)Cc1ccccn1)O2 | 25 | 16
C[C@@H]1CN([C@@H](C)CO)C(=O)CCCn2nncc2CO[C@@H]1CN(C)S(=O)(=O)c1ccccc1C#N | 13 | 8
COCCNC(=O)C[C@H]1CC[C@@H]2[C@@H](COc3ccc(NC(=O)c4cc(C)on4)cc3C(=O)N2C)O1 | 15 | 17
C[C@@H]1CN([C@H](C)CO)C(=O)c2cc(NC(=O)CCC(F)(F)F)ccc2O[C@@H](C)CCCCO[C@H]1CN(C)C(=O)Nc1ccc2c(c1)OCO2 | 7 | 8
O=C(c1cccc(F)c1)N1C[C@H]2[C@@H](c3ccccc31)[C@H](CO)N2C(=O)Cc1ccccc1 | 15 | 16
O=S(=O)(Cc1ccccc1)N1CCCCN2[C@H](CO)[C@@H](c3ccc(C#Cc4ccccc4)cc3)[C@H]2C1 | u | x
Cc1noc(C)c1S(=O)(=O)Nc1ccc2c(c1)C(=O)N([C@H](C)CO)C[C@H](C)[C@H](CN(C)S(C)(=O)=O)OCCCC[C@H](C)O2 | 1 | -1
C[C@@H]1CN([C@H](C)CO)C(=O)c2c(c3ccccc3n2C)-c2ccccc2CO[C@H]1CN(C)Cc1ccc(C(=O)O)cc1 | 10 | 13
CO[C@H]1CN(C)C(=O)c2ccc(NC(=O)C3CCCCC3)cc2OC[C@@H](C)N(C(=O)c2ccccc2)C[C@H]1C | 1 | 2
C[C@@H]1CN([C@H](C)CO)C(=O)c2cccc(NS(=O)(=O)c3ccccc3)c2O[C@H]1CN(C)Cc1ccc(C(=O)O)cc1 | 19 | 22
C[C@H]1CN([C@@H](C)CO)C(=O)c2cc(NS(=O)(=O)c3ccc(F)cc3)ccc2O[C@@H]1CN(C)S(=O)(=O)c1ccc(F)cc1 | 13 | 6
C[C@@H]1CN([C@@H](C)CO)C(=O)CCCn2nncc2CO[C@H]1CN(C)C(=O)CCC(F)(F)F | 13&6 | 9&-1
N#C[C@@H]1[C@H](c2ccc(C3=CCCC3)cc2)[C@@H](CO)N1c1nc(-c2ccccc2)cs1 | -7 | 9
C[C@H](O)C#Cc1cnc2c(c1)C(=O)N([C@H](C)CO)C[C@H](C)[C@@H](CN(C)C(=O)CN1CCOCC1)O2 | 9 | 5
CCNC(=O)[C@@H]1[C@@H](CO)[C@@H]2Cn3c(ccc(-c4ccncc4)c3=O)[C@H]1N2Cc1ccccc1 | 7 | 10
N#C[C@H]1[C@H](c2ccc(C#CC3CCCC3)cc2)[C@@H](CO)N1C(=O)c1cccc(F)c1 | -20 | -19
COc1cccc(-c2ccc3c(c2)O[C@H](CN(C)Cc2cncnc2)[C@H](C)CN([C@H](C)CO)S3(=O)=O)c1 | -14 | -13
N#C[C@@H]1[C@H](c2ccccc2-c2ccccc2)[C@H](CO)N1C(=O)NC1CCCCC1 | -14 | -6
C[C@H](CO)N1C[C@H](C)[C@@H](CN(C)C(=O)Nc2ccccc2C(F)(F)F)OCc2cn(nn2)CCCC1=O | 3 | 1
C[C@H]1CN([C@@H](C)CO)C(=O)c2cccc(NS(=O)(=O)c3cn(C)cn3)c2O[C@@H]1CN(C)S(=O)(=O)c1cn(C)cn1 | 31 | 32
C[C@@H]1CN([C@@H](C)CO)C(=O)c2cc(C#Cc3ccncc3)cnc2O[C@H]1CN(C)C(=O)c1ccccc1F | -10 | 1

The list goes on.
compound | Vaccinia stage | Vaccinia stage Venus
C[C@@H]1CN([C@H](C)CO)C(=O)c2cc(NC(=O)C3CC3)ccc2O[C@@H]1CN(C)S(=O)(=O)c1ccccc1 | 3 | -3
C[C@H](CO)N1C[C@H](C)[C@@H](CN(C)Cc2ccc(-c3ccccc3)cc2)Oc2ncc(C#C[C@@H](C)O)cc2C1=O | u | x
C[C@H]1CN([C@@H](C)CO)C(=O)c2cc(C#CCN(C)C)cnc2O[C@@H]1CN(C)C(=O)CN1CCOCC1 | 25 | 9
CCNC(=O)C[C@@H]1CC[C@H]2[C@@H](COc3ccc(NC(=O)Cc4cccs4)cc3C(=O)N2C)O1 | 11 | 9
CN(C)C(=O)c1cccc(-c2ccc([C@H]3[C@H]4CN(C(=O)C5CCCC5)CC(=O)N4[C@H]3CO)cc2)c1 | 2 | -4
C[C@H](CO)N1C[C@H](C)[C@@H](CN(C)C(=O)c2ccncc2)OCCCC[C@H](C)Oc2ccc(NS(=O)(=O)c3cn(C)cn3)cc2C1=O | 29 | 14
C[C@H](CO)N1C[C@H](C)[C@@H](CN(C)C)Oc2ncc(-c3cccc(C(=O)N(C)C)c3)cc2C1=O | 21 | 14
C[C@H](NC(=O)C[C@H]1C[C@H]2c3cc(NC(=O)Nc4ccc(C(F)(F)F)cc4)ccc3O[C@H]2[C@@H](CO)O1)c1ccccc1 | -2 | -3
C[C@H](CO)N1C[C@H](C)[C@H](CN(C)C(=O)C2CC2)OCc2ccccc2-c2c(n(C)c3ccccc23)C1=O | 10 | 1
COc1ccccc1C(=O)Nc1ccc2c(c1)OC[C@H](C)N(C)C[C@@H](C)[C@H](OC)CN(C)C2=O | 4 | 7
CCCC(=O)Nc1ccc2c(c1)C(=O)N(C)C[C@@H](OC)[C@H](C)CN(Cc1cccc(F)c1)[C@H](C)CO2 | 10 | 0
C[C@@H]1CN([C@@H](C)CO)C(=O)c2cc(-c3ccc(F)cc3)cnc2O[C@@H]1CN(C)Cc1cccnc1 | 0 | 6
C[C@@H]1CN([C@@H](C)CO)C(=O)Cc2cc(NC(=O)CCN3CCOCC3)ccc2O[C@@H]1CN(C)S(=O)(=O)c1cccs1 | 2 | -1
C[C@H](CO)N1C[C@H](C)[C@H](CN(C)S(=O)(=O)c2ccccc2)Oc2c(NC(=O)C3CCCCC3)cccc2C1=O | -21 | -12
COc1ccc(S(=O)(=O)N(C)C[C@H]2OCCCC[C@@H](C)Oc3ccc(NC(=O)Nc4c(C)noc4C)cc3C(=O)N([C@@H](C)CO)C[C@H]2C)cc1 | 14 | 9
CO[C@@H]1CC[C@H]2CCN(C)C(=O)[C@H](C)[C@H](OC)CN(C)C(=O)c3cc(C#N)ccc3OC[C@@H]1O2 | 8 | 10
Cc1ccc(-c2ccc3c(c2)O[C@H](CN(C)Cc2ccc(C(=O)O)cc2)[C@@H](C)CN([C@@H](C)CO)S3(=O)=O)cc1 | u | x
COc1cccc(-c2cccc(-c3nc(C(=O)N4CCN(C)CC4)cc4c3[C@@H](CCO)N(S(=O)C(C)(C)C)C4)c2)c1 (stereo partly drawn) | -7 | 2
C[C@@H]1CN([C@H](C)CO)C(=O)Cc2cc(NC(=O)Nc3cccc4ccccc34)ccc2O[C@@H]1CN(C)C(=O)Nc1ccccc1 | 6 | 13
C[C@@H]1CN([C@H](C)CO)C(=O)CCCn2nncc2CO[C@H]1CN(C)S(C)(=O)=O | 17 | 6
C[C@H](CO)N1C[C@H](C)[C@@H](CN(C)C(=O)Nc2ccc(F)cc2)OCCCC[C@H](C)Oc2ccc(NC(=O)Nc3cccc4ccccc34)cc2C1=O | 2 | -4
O=C(NC[C@H]1[C@H](c2ccccc2)[C@@H](CO)N1C(=O)C1CC1)NC1CCCC1 | -2 | -2
CC(=O)N1CC2(C1)[C@H](c1ccccc1)[C@H](CO)N2CC1CCOCC1 | 4 | 2
Cc1ccccc1S(=O)(=O)N1CC(=O)N2[C@@H](CO)[C@@H](c3ccc(C#Cc4ccccc4)cc3)[C@@H]2C1 | 9 | 1
C[C@@H]1CCCCO[C@@H](CN(C)C(=O)C2CCCCC2)[C@H](C)CN([C@H](C)CO)C(=O)c2cc(NS(=O)(=O)c3ccc(F)cc3)ccc2O1 | u | x
O=C(N[C@H]1CC[C@@H](CC(=O)N2CCOCC2)O[C@@H]1CO)c1cccc(F)c1 | 2 | 7

Bioassay records (PubChem)
